HPGD block: qHTS Assay for Inhibitors of HPGD (15-Hydroxyprostaglandin Dehydrogenase) | 15-hydroxyprostaglandin dehydrogenase [NAD(+)] (Homo sapiens), P15428 | purified HPGD, NADH fluorescence kinetic, PGE2 substrate | Potency, µM, without a hit: at the top dose activity change, negative = inhibition, actives largely listed as inhibitors | 150,000 compounds, 4.3% hits; active = well fitted inhibition curve with a large enough effect (not every such curve was filed as active); inconclusive = small, poorly fitted or top-dose-only effect, or another doubt; inactive = no such curve, though single readings can be large or run the other way;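 note: top concentration of the series not given in the record; plate controls included wells without enzyme; inactives centre near -10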
Target sequence (P15428 whole entry, looked up): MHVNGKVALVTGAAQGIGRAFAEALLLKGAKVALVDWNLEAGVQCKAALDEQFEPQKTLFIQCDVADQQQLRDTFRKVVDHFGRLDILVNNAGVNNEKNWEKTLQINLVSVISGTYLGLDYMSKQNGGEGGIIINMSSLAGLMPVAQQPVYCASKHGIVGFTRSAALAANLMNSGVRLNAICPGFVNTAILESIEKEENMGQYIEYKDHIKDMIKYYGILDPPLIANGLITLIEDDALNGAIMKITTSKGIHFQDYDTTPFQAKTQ
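20 nM HPGD preincubated 15 min at room temperature with compound in 50 mM Tris-HCl pH 8, 0.01% Tween 20. Started with 1 mM NAD+ and 30 uM prostaglandin E2; NADH fluorescence (360/450 nm) read 5 times over 30-s intervals, last minus first.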
Numbers without * were called inactive; ? = inconclusive; & = joins results of further samples. % is set by controls: 0 for no effect and ±100 for the full control effect; potency is the fitted concentration of half-maximal effect. This is a subset, so the mix of outcomes need not match the whole.

O=C(N/N=C/c1c(Cl)[nH]c2ccccc12)c1sc2ccccc2c1Cl
  HPGD block = -17%

O=C(Oc1ccc(=O)n(-c2ccccc2)n1)c1ccc(Cl)cc1
  HPGD block = -22%

N#Cc1cccc(NC(=O)N2CCCC3(CCN(C(=O)c4csnn4)CC3)C2)c1
  HPGD block = -3%

CCN(CC)c1ccc(NC(=O)c2[nH]c(C)c(C(C)=O)c2C)c(C)c1
  HPGD block = -8%

COc1ccc(N=C2NN=C(c3c(C)[nH]c4ccccc34)CS2)cc1
  HPGD block = -23%

CCOC(=O)c1nn(-c2ccccc2F)c(-c2ccccc2)c1C(=O)c1ccccc1
  HPGD block = -11%

CCOc1ccc(-n2c(SCc3ccc(C(=O)OC)o3)nc3c(c2=O)SCC3)cc1
  HPGD block = -7%

CCOC(=O)Nc1sc(C)c(C)c1C(=O)OCC
  HPGD block = 0%

COc1ccc(S(=O)(=O)N2CCCC(C(=O)Nc3ccc(OC)c(OC)c3)C2)cc1 (stereo not drawn)
  HPGD block = -11%

CCOC(=O)N1CCN(S(=O)(=O)c2cccs2)CC1
  HPGD block = -13%

CC(C)(C)CNc1cc(N2CCCC2)ccc1[N+](=O)[O-]
  HPGD block = -1%

CC(C)CCCC(C)C1CCC2C3CC=C4CC(O)CCC4(C)C3CCC12C (stereo not drawn)
  HPGD block = 0%

COCC(=O)N(Cc1nc2ccccc2c(=O)[nH]1)Cc1cccs1
  HPGD block = -19%

O=C(c1ccc(F)cc1)n1ccc(-c2cnc(-c3ccccc3)s2)n1
  HPGD block = ?

COc1ccc(C(=O)Nc2cccc(OC(=O)c3ccc(C)c(C)c3)c2)cc1
  HPGD block = -12%

Cc1cc(C(=O)Nc2cccc(/C=C/C(=O)O)c2)c(C)o1
  HPGD block = -11%

O=C1C=C(O)CC(c2ccc(Cl)c(Cl)c2)C1 (stereo not drawn)
  HPGD block = -3%

Cc1nnc(SCC(=O)Nc2sc3c(c2C#N)CCCCC3)n1N
  HPGD block = -7%

CC(=O)Nc1ccc(NC(=O)c2c(C)nc3ccccn23)cc1
  HPGD block = -18%

Cc1ccc(C(=O)c2cc([N+](=O)[O-])ccc2N2CCOCC2)cc1C
  HPGD block = -16%

COc1ccc(-n2c(COc3ccc(C)cc3)nnc2SCc2ccc(C#N)cc2)cc1
  HPGD block = -25%

Cc1cc(C)c2nc(N3CCN(C)CC3)c(C#N)cc2c1
  HPGD block = ?

CCOc1ncccc1C(=O)OCc1ccc(Cl)cc1
  HPGD block = -9%

Cc1[nH]c2ccccc2c1SCCNC(=O)c1ccc(Br)o1
  HPGD block = 14µM*

COCCN=C1Sc2nc3ccc(C)cc3cc2CN1Cc1ccco1
  HPGD block = -20%

COc1cc2nc(N(C)CCCNC(=O)[C@@H]3CCCO3)nc(N)c2cc1OC
  HPGD block = ?

CN(Cc1ccccc1)S(=O)(=O)c1ccc(NC(=O)C2CCCO2)cc1 (stereo not drawn)
  HPGD block = -22%

O=c1c2cnn(-c3ccccc3)c2ncn1Cc1ccccn1
  HPGD block = -25%

O=c1c(CCc2ccccc2)nc2cnc(Oc3cccc(Cl)c3)nc2n1C[C@H]1CCCO1
  HPGD block = -4%

COc1ccc(S(=O)(=O)N/N=C/c2ccc(OCCN3CCOCC3)c(OC)c2)cc1
  HPGD block = -19%

Cc1cccc(C(=O)NC2CC3CCCC(C2)N3S(=O)(=O)c2ccccc2)c1 (stereo not drawn)
  HPGD block = -9%

CCOC(=O)Cc1csc(NC(=O)C2CCCCC2C(=O)O)n1 (stereo not drawn)
  HPGD block = 0%

CN(C)c1ccc(-c2nn3c(C4CCCCC4)nnc3s2)cc1
  HPGD block = ?

COc1oc(-c2ccc(Cl)cc2)nc1C(F)(F)F
  HPGD block = -24%

CCOc1ccc(C(=O)NCCC(=O)NCCCC(=O)O)cc1
  HPGD block = -5%

COc1cccc(-c2nc(NCCN3CCOCC3)c3ccccc3n2)c1O
  HPGD block = -17%

CN1CCN(CC#CC(C)(O)C2CC3C=CC2C3)CC1 (stereo not drawn)
  HPGD block = 3%

CCOC(=O)c1cccc(NC(=O)CSc2nnc(CNc3ccc(C)cc3)n2CC)c1
  HPGD block = -10%

CCOC(=O)c1nn(-c2ccccc2C)c2nc(Nc3ccccc3)cc(=O)n12
  HPGD block = ?

CCc1nc(C#N)c(N2CCOCC2)o1
  HPGD block = -13%

Cc1ccc(S(=O)(=O)N2CCC(=O)N(C(COCc3ccc(Cl)c(Cl)c3)Cc3ccccc3)CC2)cc1 (stereo not drawn)
  HPGD block = -10%

O=C(Nc1ccccc1[N+](=O)[O-])c1cccnc1Cl
  HPGD block = -13%

Cc1[nH]c2c(Cl)cccc2c1CCNC(=O)C1CCCCC1C(=O)OCC(F)(F)F (stereo not drawn)
  HPGD block = -4%

O=C(CCCN1C(=O)c2ccccc2C1=O)NCCC1=CCCCC1
  HPGD block = ?

CN(c1ccccc1C(=O)O)S(=O)(=O)c1ccc2c3c(cccc13)C(=O)N2
  HPGD block = -8%

CCCc1nn(C(=O)c2ccccc2)c2c1C(=O)CC(C)(C)C2
  HPGD block = -25%

COc1cc(C(=O)NCCC(=O)NCCCN2CCCCC2)cc(OC)c1OC
  HPGD block = -11%

COc1ccc(NC(=O)N2CCc3ccccc32)cc1
  HPGD block = -6%

COCc1nc2ccccc2n1CCOc1ccccc1OC
  HPGD block = -9%

CCOc1ccccc1NC1=CC(=O)CC(c2ccccc2)C1 (stereo not drawn)
  HPGD block = -11%

O=C(NCCCN1CCC(Cc2ccccc2)CC1)C1CCN(S(=O)(=O)N2CCOCC2)CC1
  HPGD block = -4%

CN(C(=O)CSc1nnc(-c2n[nH]c3ccccc23)o1)c1ccccc1
  HPGD block = -21%

CC(C)NS(=O)(=O)c1ccc(NC(=S)NC(=O)c2cccc([N+](=O)[O-])c2)cc1
  HPGD block = ?

Nc1nc(NC(=O)c2ccccc2)nn1-c1ccccc1
  HPGD block = -7%

CCc1nnc(NC(=O)c2c(C)nn(-c3ccccc3)c2Cl)s1
  HPGD block = -10%

O=C(c1ccc(F)cc1)N1CCC(N2CCOCC2)CC1
  HPGD block = 3%

CCCNC(=O)c1cc2ccccc2c(=O)o1
  HPGD block = -28%

CC(=O)N1CCC2(CC1)C(C#N)=C(N)Oc1n[nH]c(C)c12
  HPGD block = -1%

O=C1CCc2cc(S(=O)(=O)N3CCC(C(=O)NCCC4=CCCCC4)CC3)ccc2N1
  HPGD block = -8%

COc1cc(CNCCc2ccccc2)ccc1OCC(=O)NC(C)(C)C
  HPGD block = -6%

O=C(O)CCCCCn1c(SCC(=O)N2CCCC2)nc2ccsc2c1=O
  HPGD block = -5%

COc1ccc(-c2cn3c(C)c(C(=O)Nc4cccc(C)n4)sc3n2)cc1
  HPGD block = -24%

Cn1c(=O)c2c(nc(CN3CCN(C(=O)c4ccco4)CC3)n2CCCc2ccccc2)n(C)c1=O
  HPGD block = -1%

CC(C)(C)NC(=O)NC(=O)CSc1ncc(C(F)(F)F)cc1Cl
  HPGD block = -13%

COC(=O)c1ccc(C)c(NS(=O)(=O)c2ccc(OC)cc2)c1
  HPGD block = -2%

CC1(CCc2ccccc2)NC(=O)N(Cc2nnc(-c3ccccc3Br)o2)C1=O (stereo not drawn)
  HPGD block = -8%

CC(=O)Nc1ccc(N/C=C/C(=O)c2ccco2)cc1
  HPGD block = 25µM*

COc1ccc(C2=NOC(C(=O)Nc3c(C)n(C)n(-c4ccccc4)c3=O)C2)cc1OC (stereo not drawn)
  HPGD block = -15%

NC(=O)CNC(=O)[C@@H]1CC2(CC(c3ccc(Cl)cc3)=NO2)CN1C(=O)c1ccccc1 (stereo partly drawn)
  HPGD block = -19%

COC(=O)c1nnc(-c2ccccc2)nc1OC
  HPGD block = -4%

C=CCNC(=O)c1c(Cl)nc(C)c([N+](=O)[O-])c1C
  HPGD block = -8%

Cc1cccc(NCc2nc(SCC(N)=O)n[nH]2)c1
  HPGD block = -20%

Cc1[nH]c2ccccc2c1C(=O)C(=O)NCCc1ccc(S(N)(=O)=O)cc1
  HPGD block = -20%

CCN(CC)S(=O)(=O)c1ccc(NC(=O)COC(=O)CNS(=O)(=O)/C=C/c2ccccc2)cc1
  HPGD block = -15%

COc1ccc(/C=C/C(=O)NCc2cccnc2)cc1
  HPGD block = -19%

CCCn1c(=O)c(C(=O)Nc2ccccc2)c(O)c2ccccc21
  HPGD block = ?

COC(=O)N/N=C/c1ccc(-c2ccc(Cl)c(Cl)c2)o1
  HPGD block = ?

CC(C)(C)N(NC(=O)Nc1ccc(Cl)cc1)C(=O)c1ccccc1
  HPGD block = -14%

Cc1ccc(S(=O)(=O)c2c(N)n(CCN3CCOCC3)c3nc4ccccc4nc23)cc1C
  HPGD block = ?

CCN(C(=O)CSc1nnc(Cc2cccc3ccccc23)n1N)C1CCS(=O)(=O)C1 (stereo not drawn)
  HPGD block = -8%

CCCC(c1nnnn1CCC(C)C)N1CCC(C(N)=O)CC1 (stereo not drawn)
  HPGD block = -14%

CCC(=O)N1CCc2cc(S(=O)(=O)NCCCOC)ccc21
  HPGD block = 28µM*

CSCCC(NC(=O)c1cc([N+](=O)[O-])ccc1Cl)C(=O)O (stereo not drawn)
  HPGD block = -10%

CC(CN(C)Cc1ccccc1)OC(=O)c1cccc(F)c1 (stereo not drawn)
  HPGD block = -23%

O=C(CSc1nc(C2CC2)nc2ccccc12)N1CCc2ccccc2C1
  HPGD block = -12%

CCC1=C(OC(=O)N(CC)CC)N2C(=O)OC(=NCc3ccccc3)[C@]2(C)[C@H]2C1=CC[C@H]1C(=O)N(CC)C(=O)[C@H]12
  HPGD block = -7%

CC1Cc2ccccc2N1C(=O)COC(=O)Cn1cnc2ccccc2c1=O (stereo not drawn)
  HPGD block = -8%

CN(C)c1nc(N)nc(CSc2nnnn2-c2cccc3ccccc23)n1
  HPGD block = -5%

Cc1c(Br)c([N+](=O)[O-])nn1CCCC(=O)N1CCN(c2ccccc2)CC1
  HPGD block = -5%

Cc1cc(C(=O)N[C@@H](c2ccccc2)[C@]2(C)C[C@H]2[C@@H](C)C(=O)Nc2ccc3ccccc3c2)n(C)n1
  HPGD block = -6%

Six entries from above, with tabs:
SMILES	HPGD block
O=C(Oc1ccc(=O)n(-c2ccccc2)n1)c1ccc(Cl)cc1	-22%
N#Cc1cccc(NC(=O)N2CCCC3(CCN(C(=O)c4csnn4)CC3)C2)c1	-3%
CCN(CC)c1ccc(NC(=O)c2[nH]c(C)c(C(C)=O)c2C)c(C)c1	-8%
COc1ccc(N=C2NN=C(c3c(C)[nH]c4ccccc34)CS2)cc1	-23%
CCOC(=O)c1nn(-c2ccccc2F)c(-c2ccccc2)c1C(=O)c1ccccc1	-11%
CCOc1ccc(-n2c(SCc3ccc(C(=O)OC)o3)nc3c(c2=O)SCC3)cc1	-7%

Going on with the list:
COCCCNc1nc2c(-c3ccc(Cl)cc3)nnn2c2ccccc12
  HPGD block = ?

CC(C)NC[C@@H](O)COc1ccc(CCOCC2CC2)cc1
  HPGD block = -4%&0%

CN1CCC(N(C)C(=O)COc2ccccc2-c2ccccc2)CC1
  HPGD block = -5%

CC(C)(C)N1C(=O)c2ccc(C(=O)NCc3ccco3)cc2C1=O
  HPGD block = -14%

CCc1nnc(NC(=O)CCN2C(=O)c3ccccc3S2(=O)=O)s1
  HPGD block = -19%

Cc1cc(NC(=O)Cc2cn3ccsc3n2)n(-c2ccccc2)n1
  HPGD block = -3%

CCCCNC(=O)NC1CCCC1
  HPGD block = -17%

CCCN(CCC)C(=O)c1cc(-c2ccc3c(c2)OCO3)nc2ccccc12
  HPGD block = ?

CCN(CC)C(=O)C1CCCN(Cc2ccc3c(c2)OCO3)C1 (stereo not drawn)
  HPGD block = -9%

COc1ccc([N+](=O)[O-])cc1NC(=O)CSCc1cc(C)cc(C)c1
  HPGD block = -8%

Cc1ccc2nc(-c3cccnc3SCC(=O)N3c4ccccc4CC3C)[nH]c2c1 (stereo not drawn)
  HPGD block = ?

CCNc1ncc2nc(-c3ccccc3)c(=O)n(C3CC3)c2n1
  HPGD block = ?

NCCc1nnc(SCc2ccc(F)cc2)o1
  HPGD block = -1%

COc1ccc(C(O)CNc2ccc(C)cc2)cc1 (stereo not drawn)
  HPGD block = -11%

S=c1[nH]cc(Cc2ccccc2)s1
  HPGD block = 20µM*

Cc1ccc(NC(=O)CN2C(=O)/C(=C\c3cccs3)SC2=S)cc1
  HPGD block = -8%

O=C(CNC(=O)c1ccc(S(=O)(=O)N2CCCC2)cc1)N/N=C/c1ccccc1Cl
  HPGD block = 0%

COC(=O)/C(=C/c1ccco1)NC(=O)c1ccco1
  HPGD block = -17%

COc1ccc(C(=O)C(OC(=O)c2ccc(C)c(NC(C)=O)c2)c2ccccc2)cc1 (stereo not drawn)
  HPGD block = -10%

COc1ccc(C2c3c(ccc4ccccc34)Oc3ncn4nc(CO/N=C/c5ccccc5)nc4c32)cc1 (stereo not drawn)
  HPGD block = -5%

C/C(=N\NC(=O)CNc1cccc(C)c1)c1ccc(Br)s1
  HPGD block = -8%

C[C@@H](CNC(N)=O)NC(N)=O
  HPGD block = -17%

S=C(NCCc1ccccn1)Nc1ccc(Cl)c(Cl)c1
  HPGD block = -18%

Cc1cc(C)c(C)c(S(=O)(=O)Nc2ccc(O)cc2)c1C
  HPGD block = -6%

COC(=O)c1cc(OC)c(OC)cc1NC(=O)c1ccccc1
  HPGD block = -15%

Cc1ccc(C(=O)N/C(=C\c2cccs2)C(=O)NCc2ccncc2)cc1
  HPGD block = -15%

O=C(c1ccccc1)N1CCN(C(=S)NCCc2ccccc2)CC1
  HPGD block = -8%

CCOC(=O)c1ccccc1NC(=O)/C(C)=C/C(=O)O
  HPGD block = -17%

CCOC(=O)c1c(OCC)[nH]c2c1cc(O)c1ccccc12
  HPGD block = ?

COc1ccc(Cc2nnc(NC(=O)c3cccc([N+](=O)[O-])c3)s2)cc1
  HPGD block = -9%

COc1cccc(NC(=O)CSc2nnc(C)s2)c1
  HPGD block = -12%

Nc1nnc(SCc2ccc(F)cc2)s1
  HPGD block = 0%

Compound activity: PubChem BioAssay, National Center for Advancing Translational Sciences (NCATS)
